Screening data: PubChem, ICCB-Longwood Screening Facility, Harvard Medical School
Sa growth inh: blocks Staphylococcus aureus growth; S. aureus RN4220 growth, OD600, 20 h, 42 °C; stronger effect = lower value; relative growth, % (concentration not given with the values); actives 0.53% (n = 170,000); AID 720641;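 active = growth at 42 °C up to 50% and 20 or more points under that at 30 °C, or under 10% at both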;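 note: 300 nL library stock went into each well; scaled to the means of positive and negative controls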
GIV Gai3 FP: GIV-Galpha-i interaction inhibition; AID 1224905; P08753; percent of control (FP), % (concentration not given with the values); actives 0.42% (n = 210,000); Galpha-i3/FITC-GIV peptide fluorescence polarization, 90 min; stronger effect = lower value; scaled: aluminum fluoride 0%, vehicle 100%;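 active = replicate mean at 85% of control or lower, very high polarization wells dropped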;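 note: wells of about 15 µL received 100 nL stock; the first replicate is given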
Target sequence (P08753 whole entry, looked up): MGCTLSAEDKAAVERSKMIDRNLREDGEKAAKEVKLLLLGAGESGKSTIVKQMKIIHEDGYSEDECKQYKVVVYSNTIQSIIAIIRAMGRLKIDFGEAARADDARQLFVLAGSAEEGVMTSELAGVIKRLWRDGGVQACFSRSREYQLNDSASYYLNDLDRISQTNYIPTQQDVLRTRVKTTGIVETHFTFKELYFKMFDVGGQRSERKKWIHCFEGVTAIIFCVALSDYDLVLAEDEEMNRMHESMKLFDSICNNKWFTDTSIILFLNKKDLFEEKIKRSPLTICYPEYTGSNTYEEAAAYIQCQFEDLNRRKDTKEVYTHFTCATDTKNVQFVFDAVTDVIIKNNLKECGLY
HCMV NEC inh: cytomegalovirus nuclear egress complex inhibition; HTRF UL50-UL53 interaction, normalized percent inhibition; inhibition, % (concentration not given with the values); actives 0.15% (n = 190,000); AID 1918969;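 active = both replicates at 50% or more, plus weaker picks with an unusually low signal ratio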;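 note: stock transfer was 100 nL into about 20 µL; 0% = negative control wells and 100% = wells with untagged competitor protein; inactives centre near -12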
Sa growth inh second temp: second read-out of Sa growth inh, no call of its own (marks repeat the call); relative growth, %; measured here: growth at 30 °C;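 optical density after 20 h as mean of two plates; 100% = untreated growth and lower means inhibition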
An asterisk follows results filed as active; · = no result given; & = joins results of further samples.

| SMILES | Sa growth inh | Sa growth inh second temp | GIV Gai3 FP | HCMV NEC inh |
| --- | --- | --- | --- | --- |
| O=C(/C=C(\O)c1ccccc1)C(F)(F)C(F)F | -0.8* | -0.4* | 97 | -7 |
| Cc1ccccc1C(=O)Cc1ccc(C(N)=O)cc1 | 103 | 87 | 108 | 4 |
| CC(C)CC(=O)Nc1ccc(C(=O)Cn2nnc(-c3ccccc3)n2)cc1 | 79 | 94 | · | -10 |
| CCOc1ccc(-n2c(C)c(C)c3c2ncn2nc(CCCN4C(=O)c5ccccc5C4=O)nc32)cc1 | · | · | 106 | -22 |
| CC(C)C(=O)c1cn(CC(=O)NCc2cccs2)c2ccccc12 | 96 | 78 | 100 | -4 |
| Cc1cc(C(=O)O/N=C/c2c(Cl)cccc2Cl)nn1C | 90 | 4 | 105 | 6 |
| Cc1nc2ncnn2c(C)c1CCC(=O)NCCCc1ccccc1 | 76 | 102 | 110 | 2 |
| Cc1cc(=O)n(CC(=O)NC2CCCCC2)c2c1c(C)nn2-c1ccccc1 | 107 | 97 | 107 | -16 |
| CCn1c(=O)sc2cc(NS(=O)(=O)c3ccc(F)c(C)c3)ccc21 | 101 | 86 | 103 | -16 |
| c1ccc(CNc2c3c(nc4nc(-c5ccccc5)nn24)CCCC3)cc1 | · | · | 97 | -7 |

(continued)
| SMILES | Sa growth inh | Sa growth inh second temp | GIV Gai3 FP | HCMV NEC inh |
| --- | --- | --- | --- | --- |
| CCN(CC)S(=O)(=O)c1cccc(C(=O)NN)c1 | 82 | 106 | · | -7 |
| CNC(=O)Cn1nc(C)c(S(=O)(=O)N(C)C)c1C | 77 | 97 | · | -32 |
| COc1cc(Br)cc(/C=C2/C(=O)NC(=O)N(c3ccc(Cl)cc3)C2=O)c1O | · | · | 108 | -21 |
| Cc1ccc(-n2ncc3c(NC(C)c4ccccc4)ncnc32)cc1 (stereo unspecified) | 116 | 88 | 102 | · |
| CC1CC/C(=C/c2ccc(Cl)cc2)C(=O)C1 (stereo unspecified) | 78 | 64 | · | -38 |
| O=C(Nc1ccccc1)Nc1ccccc1Sc1nccc(C(F)(F)F)n1 | 110 | 90 | 109 | 6 |
| O=C(Cn1nc(-c2ccc(Cl)cc2)ccc1=O)NC1CCCC1 | 100 | 75 | 100 | -78 |
| CCOc1ccc(N(CC(=O)NN=C2CCCCC2)S(C)(=O)=O)cc1 | 92 | 89 | 101 | -10 |
| CC(=O)N1CCc2cc(S(=O)(=O)NC(Cc3ccccc3)C(=O)Nc3ccc(Cl)cc3)ccc21 (stereo unspecified) | 108 | 79 | 104 | -11 |
| COc1ccc(Cn2c(CNC(=O)Cc3cccc([N+](=O)[O-])c3)nc3cccnc32)cc1 | 110 | 91 | 107 | · |

Continuation:
| SMILES | Sa growth inh | Sa growth inh second temp | GIV Gai3 FP | HCMV NEC inh |
| --- | --- | --- | --- | --- |
| CC(C)(C)C1CCC2(CC1)C(C#N)C2(C#N)C(=O)c1ccccc1 (stereo unspecified) | 86 | 94 | · | -6 |
| O=C(c1ccccc1)c1cnc2cc3c(cc2c1N1CCN(c2ccccc2)CC1)OCCO3 | 87 | 75 | 101 | -30 |
| CCCOC(=O)C1=C(C)NC2=C(C(=O)CC(c3ccc(OC)c(OC)c3)C2)C1c1ccc(OC)cc1OC (stereo unspecified) | · | · | 102 | -23 |
| CCCCCN1C(C(=O)c2ccccc2)=C(NC(C)=O)c2ccccc2S1(=O)=O | 112 | 98 | 106 | -15 |
| CC(C)c1ccc(N(CC(=O)O)S(=O)(=O)c2ccc3[nH]c(=O)c(=O)[nH]c3c2)cc1 | 119 | 96 | 102 | · |
| CCC(C)NC(=O)NCc1c(C)nn(C)c1C (stereo unspecified) | 107 | 88 | 107 | -16 |
| COc1cc(NC(=O)NCC2CCN(Cc3ccc(C)cc3)CC2)cc(OC)c1OC | 100 | 100 | 106 | 16 |
| Cc1[nH]c2ccccc2c1C(=O)C(C)OC(=O)C1CC1 (stereo unspecified) | 106 | 102 | · | -9 |
| COc1ccccc1CNC(=O)C(CC(C)C)NS(=O)(=O)c1ccc2nc(C)sc2c1 (stereo unspecified) | 68 | 75 | 98 | 1 |
| COc1ccc(CNC(=O)CCCCCn2c(=O)[nH]c3ccccc3c2=O)cc1 | 117 | 86 | 102 | · |

Continued, starting with the last 5 of the part before.
| SMILES | Sa growth inh | Sa growth inh second temp | GIV Gai3 FP | HCMV NEC inh |
| --- | --- | --- | --- | --- |
| CCC(C)NC(=O)NCc1c(C)nn(C)c1C (stereo unspecified) | 107 | 88 | 107 | -16 |
| COc1cc(NC(=O)NCC2CCN(Cc3ccc(C)cc3)CC2)cc(OC)c1OC | 100 | 100 | 106 | 16 |
| Cc1[nH]c2ccccc2c1C(=O)C(C)OC(=O)C1CC1 (stereo unspecified) | 106 | 102 | · | -9 |
| COc1ccccc1CNC(=O)C(CC(C)C)NS(=O)(=O)c1ccc2nc(C)sc2c1 (stereo unspecified) | 68 | 75 | 98 | 1 |
| COc1ccc(CNC(=O)CCCCCn2c(=O)[nH]c3ccccc3c2=O)cc1 | 117 | 86 | 102 | · |
| O=C1C2C(C(=O)N1C13CC4CC(CC(C4)C1)C3)C1C=CC2C12CC2 (stereo unspecified) | 96 | 71 | 101 | -13 |
| CCc1ccc(NC(=O)Cn2c(=O)nc(-c3ccccc3F)c3cc(Cl)ccc32)cc1 | 100 | 85 | 105 | · |
| CC(=O)Nc1cccc(OCCCN2CCS(=O)(=O)CC2)c1 | 115 | 93 | 106 | 10 |
| Cc1ccc(-c2nn(-c3ccccc3)cc2C(=O)N2CCCc3ccccc32)o1 | 98 | 74 | · | 1 |
| CCN1CCSc2ccc(C(=O)N3CCC(C)CC3)cc21 | 100 | 85 | 102 | 6 |
| COc1ccc(Cl)cc1NC(=O)c1cnn(-c2ccc(F)cc2)c1C1CCNCC1 | 97 | 90 | 109 | · |
| O=C(Cn1c(=O)c2cccn2c2ccccc21)NCc1ccccc1F | 102 | 88 | 102 | 10 |
| O=C(CSc1nnnn1-c1ccc2c(c1)OCCO2)NC1CCCC1 | 108 | 86 | 100 | -11 |
| C/C(=N/OC(=O)c1ccccc1)c1oc(C)nc1C | 92 | 94 | 102 | -6 |
| Cc1ccc2nc(SC(C)C(=O)N3CC(C)OC(C)C3)[nH]c2c1 (stereo unspecified) | 93 | 101 | · | -5 |

(list continues)
| SMILES | Sa growth inh | Sa growth inh second temp | GIV Gai3 FP | HCMV NEC inh |
| --- | --- | --- | --- | --- |
| Fc1ccc(N=CNc2ccc(F)cc2F)c(F)c1 | 89 | 88 | 98 | -20 |
| Cc1ccc(O)c(CNc2cccc3cccnc23)c1 | 106 | 63 | 100 | -9 |
| CCCC(=O)Nc1nnc(S(=O)(=O)N(C)c2ccccc2)s1 | 98 | 90 | 101 | 1 |
| Cc1ccc(CNC(=O)c2cc(C)nn2-c2ccccc2)cc1 | 93 | 75 | 105 | 4 |
| CS(=O)(=O)N1CCc2cc(C(=O)NCc3ccccc3)ccc21 | 109 | 87 | 107 | -24 |
| COC(CN(C)C(=O)c1cc2c(s1)-c1ccccc1OC2)OC | 93 | 82 | 107 | · |
| COc1ccc(-n2cc(C(=O)NC(C)Cn3c(=O)oc4ccccc43)nn2)cc1 (stereo unspecified) | 88 | 81 | 105 | -25 |
| CCCN(CCC)S(=O)(=O)c1ccc(C(=O)O)cc1 | 94 | 98 | · | -25&-15&-12&-33 |
| O=C(Cn1cc(S(=O)(=O)Cc2ccccc2)c2ccccc21)Nc1ccon1 | 92 | 84 | 106 | -29 |
| CCn1c(CC(=O)Nc2ccccc2)nnc1SC(C)C(=O)Nc1ccc2c(c1)OCO2 (stereo unspecified) | 66 | 88 | 105 | 8 |

An excerpt of these results, with two lines to a compound.
Order of results: Sa growth inh, Sa growth inh second temp, GIV Gai3 FP, HCMV NEC inh
> Cc1ccc(O)c(CNc2cccc3cccnc23)c1
    106, 63, 100, -9
> CCCC(=O)Nc1nnc(S(=O)(=O)N(C)c2ccccc2)s1
    98, 90, 101, 1
> Cc1ccc(CNC(=O)c2cc(C)nn2-c2ccccc2)cc1
    93, 75, 105, 4
> CS(=O)(=O)N1CCc2cc(C(=O)NCc3ccccc3)ccc21
    109, 87, 107, -24

(list continues)
| SMILES | Sa growth inh | Sa growth inh second temp | GIV Gai3 FP | HCMV NEC inh |
| --- | --- | --- | --- | --- |
| COc1ccc(C2CC(=O)N(c3cccc(Br)c3)C(=O)C2)cc1OC | · | · | 98 | -35 |
| COc1ccc(-c2nc(CN3CCN(S(=O)(=O)c4ccc(F)cc4)CC3)c(C)o2)cc1 | · | · | 104 | -26 |
| CC1CCCCC1NC(=O)CSc1ccccc1 (stereo unspecified) | 108 | 96 | 102 | -9 |
| CCOC(Cn1c(SCC(=O)Nc2cc(C)on2)nc2ccccc2c1=O)OCC | 86 | 84 | 101 | -28 |
| CCOC(=O)c1c(NC(=O)COc2ccc(Cl)cc2Cl)sc2c1CCCCC2 | 97 | 84 | 104 | -28 |
| Cc1ccc(Nc2nc(C)cc(C)n2)c(C(=O)O)c1 | 102&94 | 86&70 | 99&102 | -8 |
| Cc1ccc(S(=O)(=O)NCCc2csc(-c3ccc(Cl)cc3)n2)cc1C | · | · | 101 | -26 |
| Cc1sc2[nH]c(=S)[nH]c(=O)c2c1C | · | · | 99 | -22 |
| CC(C)NC(=O)C1CCC(Cn2c(=O)c3sccc3n(CC(=O)Nc3ccccc3)c2=O)CC1 (stereo unspecified) | 103 | 84 | 100 | · |
| O=C(NCCc1ccccn1)c1cc(Cl)ccc1Cl | 95 | 89 | · | -4 |

Next section:
| SMILES | Sa growth inh | Sa growth inh second temp | GIV Gai3 FP | HCMV NEC inh |
| --- | --- | --- | --- | --- |
| COc1cc(C2N(c3cc(C)on3)C(=O)C3CCCN32)cc(OC)c1OC (stereo unspecified) | 96 | 89 | 105 | -29 |
| c1ccc(CSc2nc3ncccc3[nH]2)cc1 | 96 | 85 | 102 | · |
| CC1CCN(S(=O)(=O)c2ccc3c(c2)N(CC(=O)NC2CCCCC2)C(=O)CC(C)S3)CC1 (stereo unspecified) | · | · | 99 | -26 |
| COc1ccc(-c2noc(-c3nnn(-c4cc(C)ccc4C)c3N)n2)cc1 | 92 | 91 | 102 | · |
| CCOc1ccccc1NC(=O)CCn1nc(C)c(S(=O)(=O)N2CCCCC2)c1C | 90 | 82 | 97 | · |
| CCC(Sc1nc2ccccc2s1)C(=O)O (stereo unspecified) | 88 | 89 | 102 | 0 |
| O=C(CSc1cccc2cccnc12)Nc1nc2c(ccc3ccccc32)s1 | · | · | 106 | -13 |
| CCOc1ccccc1C1Nc2ccccc2-c2nnc(SCc3ccccc3)nc2O1 (stereo unspecified) | 100 | 86 | 105 | -26 |
| C=CCn1cc(/C=c2\sc3n(c2=O)C(c2ccc(OC)cc2)C(C(=O)OCC)=C(C)N=3)c2ccccc21 (stereo unspecified) | · | · | 140 | -22 |
| COc1cc(OC)c2c(c1)C(=O)OC2OC (stereo unspecified) | 75 | 82 | 100 | -14 |

New compounds follow.
| SMILES | Sa growth inh | Sa growth inh second temp | GIV Gai3 FP | HCMV NEC inh |
| --- | --- | --- | --- | --- |
| N#Cc1cccc(C(=O)NC2CCCC2)c1 | 80 | 92 | · | -20 |
| O=C(c1ccncc1)N1CCN(C(=O)c2ccncc2)CC1 | 93 | 89 | 101 | 3 |
| COc1ccc2nc3sc(C(=O)Nc4cc(Cl)c(OC)cc4OC)cc3cc2c1 | 110 | 73 | 104 | -16 |
| CC(C)c1ccc(OCC(O)CN2CCN(c3ccc(F)cc3)CC2)cc1 (stereo unspecified) | 97 | 93 | 98 | -24 |
| O=C1CC(c2cccc(F)c2)C2=C(CC(c3ccc(F)cc3)CC2=O)N1 (stereo unspecified) | 108 | 93 | 108 | 3 |
| Cc1ccc(-c2ccc(C#N)c(=O)n2CC(=O)N2CCNC(=O)C2(C)C)cc1 | 118 | 76 | 107 | -7 |
| O=C(O)c1cncc(C#CCC2CCCCC2)c1 | 82 | 86 | 98 | 2 |
| O=C1N/C(=N\S(=O)(=O)Cc2ccccc2)S/C1=C\c1ccco1 | 97 | 65 | 108 | -60 |
| COc1ccc(CNCc2ccc(OC)c(OC)c2)cc1C | 100 | 74 | 97 | -4 |
| O=C(Cn1cnc2ccccc2c1=O)Nc1ccccc1 | 116 | 89 | 101 | -7 |

(listing goes on)
| SMILES | Sa growth inh | Sa growth inh second temp | GIV Gai3 FP | HCMV NEC inh |
| --- | --- | --- | --- | --- |
| Cc1ccc2c(c1)C(c1ccc(F)cc1)N(C(=O)c1cccc(C(F)(F)F)c1)CC(=O)N2 (stereo unspecified) | 84 | 101 | 103 | 16 |
| O=C(CSc1nc2ccccc2c(=O)n1-c1ccccc1)NC1CCCCC1 | 104 | 85 | · | -38 |
| Cc1ccccc1Cn1c2ccccc2c2ncn(Cc3ccccc3Cl)c(=O)c21 | · | · | 100 | 11 |
| CCOc1cc(C(=O)Nc2ccc3oc(-c4ccc(F)cc4Cl)nc3c2)cc(OCC)c1OCC | 89 | 80 | 103 | -47 |
| CC(C)=C1SC(=O)NC1=O | 86 | 99 | · | -15 |
| COC(=O)c1ccc(NC(=O)CCS(=O)(=O)c2ccc(Br)cc2)cc1 | 101 | 96 | 109 | · |
| CC(C(=O)NCC1CCCO1)n1cccc1C(=O)c1ccccc1 (stereo unspecified) | 91 | 78 | 103 | 2 |

Rows are unselected. About 0.8% of those tested had a hit in this group.
